Measles inh = inhibitors of measles virus growth in infected cells | infected Vero cells, GFP fluorescence, 64 h; hits give low values | z-score (no concentration beside the values) | hit rate 0.1% among 33,000 | AID 745;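 active = z-score under -3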;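 also: score is relative to mean and SD of the compound wells of a plate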
Numbers without * were called inactive. The list is partial; rates above refer to the full screens.

For COc1cccc(Nc2nc3cc(OC)ccc3cc2C#N)c1 the results were Measles inh 1.6.
`O=C(Nc1cc2cccc([N+](=O)[O-])c2oc1=O)c1cccs1` gave Measles inh 0.26.
For O=C(CCCn1c(=O)[nH]c2cc(Cl)ccc2c1=O)N1CCN(c2ccccn2)CC1 the results were Measles inh -0.33.
Screening CCC(C)C1N=C2c3ccccc3N=C(SCC(N)=O)N2C1=O (configuration not stated) returned Measles inh -0.24.
CCCc1oc2ccc(NS(=O)(=O)c3ccc4ccccc4c3)cc2c1C(=O)OCC was read as Measles inh -0.01.
Screening O=C(CSc1nc2ccccc2[nH]1)c1cccs1 returned Measles inh -0.12.
Screening O=C1c2ccccc2C(=O)N1CCc1c[nH]c2ccc(OC(=O)C34CC5CC(CC(C5)C3)C4)cc12 returned Measles inh -0.83.
CCCCN(C)C(=O)C1c2ccccc2C(=O)N2CCc3cc(OCC)c(OCC)cc3C12 (configuration not stated) was read as Measles inh -0.06.
CCCN(CCC)C1=C(C(=O)c2ccccc2)N(C)S(=O)(=O)c2ccccc21 was read as Measles inh 0.92.
For CC/C(O)=c1/ccc2cccc3nc(CC)nc1c23 the results were Measles inh 6.3.
O=C(Cn1cnc2ccccc2c1=O)NCC(=O)Nc1ccccc1F was read as Measles inh -0.66.
Screening CCCCn1c(=S)[nH]c2ccc(N3CCOCC3)cc2c1=O returned Measles inh -0.91.
O=C(CN1CC(=O)Oc2ccccc21)OCC(=O)c1ccc(Br)cc1 was read as Measles inh -0.48.
`O=C(COc1ccccc1Cl)N1CCN(c2ccccn2)CC1` gave Measles inh -0.17.
Cc1ccc(CNC(=O)c2cc3ccccc3oc2=O)cc1 was read as Measles inh -0.04.
`Cc1ccc(C(=O)O)cc1N1C(=O)c2ccc([N+](=O)[O-])cc2C1=O` gave Measles inh 0.85.
Cc1cccc(NC(=O)c2ccc3c(c2)C(=O)N(c2cccc([N+](=O)[O-])c2)C3=O)c1 was read as Measles inh -0.51.
Screening CCCc1cc(=O)[nH]c(SCC(=O)Nc2ncccn2)n1 returned Measles inh -1.5.
`Cc1ccc(-n2c3c(c(=O)[nH]c2=O)C(NC(=O)CCc2ccccc2)(C(F)(F)F)C(=O)N3)cc1` (configuration not stated) gave Measles inh 0.32.
For COc1cc2c(cc1OC)C(C(=O)N1CCCCC1)C(c1cccs1)N(C)C2=O (configuration not stated) the results were Measles inh -0.53.
For COc1ccc(C2C(C(=O)Nc3cc(C)ccc3OC)CC(=O)N2c2ccc(OC)cc2)cc1 (configuration not stated) the results were Measles inh 1.5.
`O=S1(=O)CCC(NS(=O)(=O)CCCCC(Cl)(Cl)Cl)C1` (configuration not stated) gave Measles inh 1.2.
Screening O=C(NCCN1CCOCC1)c1ccc(N2CCC(Cc3ccccc3)CC2)c([N+](=O)[O-])c1 returned Measles inh -0.81.
Screening Cc1cc(C)c(NC(=O)c2cc(S(=O)(=O)NCc3ccco3)ccc2F)c(C)c1 returned Measles inh -0.04.
For O=C(COc1ccccc1)NCc1ccco1 the results were Measles inh 0.09.
CC(C)(C)C1(O)CC(C(F)(F)F)=NN1C(=O)c1ccccc1F (configuration not stated) was read as Measles inh -1.2.
For COc1ccc2nc(SCc3ccc(C)cc3)[nH]c2c1 the results were Measles inh 0.61.
Cc1ccc(C(=O)CC2(O)C(=O)N(Cc3ccccc3)c3ccccc32)c(C)c1 (configuration not stated) was read as Measles inh -0.34.
For COC(=O)c1ccc(C)c(NC(=O)c2ccc(Cn3cc([N+](=O)[O-])cn3)o2)c1 the results were Measles inh 0.09.
Screening c1ccc2cc3n[nH]nc3cc2c1 returned Measles inh -1.4.
For COc1ccc(Br)cc1C(=O)Nc1ccc2c(c1)C(=O)c1ccccc1C2=O the results were Measles inh 1.4.
`COc1ccc(C)cc1NC(=O)c1c(I)cnn1C` gave Measles inh 1.4.
Screening NS(=O)(=O)c1ccc(CCNS(=O)(=O)c2ccc3c(c2)CCN3C(=O)C2CC2)cc1 returned Measles inh 0.82.
`O=C(CN1C(=O)CCNC1=O)N1CCN(Cc2ccccc2)CC1` gave Measles inh 0.43.
`O=C(Nc1ccc(Br)cc1)c1cc(S(=O)(=O)N2CCOCC2)ccc1F` gave Measles inh -0.01.
`O=C(O)CCn1ccnc1-c1ccccc1` gave Measles inh -1.3.
Cc1ccc(CSC2=Nc3ccccc3C3=NC(CCC(=O)NC4CCCCC4)C(=O)N23)cc1 (configuration not stated) was read as Measles inh 0.94.
For O=C(Nc1ccc2c(c1)OCCO2)c1ccc(N2CC3CC(C2)c2cccc(=O)n2C3)c(NC(=O)c2ccncc2)c1 (configuration not stated) the results were Measles inh 0.06.
O=C(Nc1c2c(nn1-c1ccc(Cl)cc1)CS(=O)(=O)C2)c1ccccc1Cl was read as Measles inh 0.
`Cn1cc([N+](=O)[O-])c(C(=O)n2cc(Br)cn2)n1` gave Measles inh 0.13.
`Cc1ccc(Sc2c(C)nn(C(=O)COc3ccccc3)c2C)cc1` gave Measles inh -0.09.
`COc1cccc(NC(=O)CN2CCN(CC(=O)Nc3ccccc3F)CC2)c1` gave Measles inh 1.4.
`CCOc1ccc(S(=O)(=O)Nc2cc(Cl)ccc2C)c2cccnc12` gave Measles inh 0.61.
`CCc1ccccc1N(CC)C(=O)Cc1c(C(=O)O)[nH]c2ccccc12` gave Measles inh -0.3.
CCOc1ccc2oc(-c3ccccc3)c(C(=O)N3CCCCC3)c2c1 was read as Measles inh -1.1.
Screening CC(C)Cn1cc(C(=O)NCCCN2CCN(c3ccccc3F)CC2)c2c3ccccc3n(C)c2c1=O returned Measles inh 0.71.
For CCCN(C(=O)Cc1c(C(=O)O)[nH]c2ccccc12)c1ccccc1C the results were Measles inh 0.82.
Screening Cc1cc(=O)oc2cc(Oc3nc(-c4cccnc4)nc4ccccc34)ccc12 returned Measles inh 0.2.
`O=C(NCc1ccco1)C1CC(=O)N(C2CCCCCC2)C1` (configuration not stated) gave Measles inh -0.5.
`O=C(Nc1ccc2oc(-c3ccncc3)nc2c1)c1cccnc1` gave Measles inh 0.06.
Screening COC(=O)CSc1nc2c(cnn2-c2ccc(Cl)cc2)c(=O)[nH]1 returned Measles inh 0.2.
For Cc1cc(C)c(NC(=O)CCC(=O)O)c(C)c1 the results were Measles inh 0.57.
`Cc1cc(=O)[nH]c(SC(C)C)n1` gave Measles inh 0.3.
CCOC(=O)c1[nH]c2ccccc2c1NC(=O)c1ccc([N+](=O)[O-])cc1 was read as Measles inh -0.57.
CSCCC(NC(=O)C1CCC(C)CC1)C(=O)Nc1cccnc1 (configuration not stated) was read as Measles inh 0.46.
`CC(=O)N1CCc2cc(S(=O)(=O)NC(C(=O)NC3CCCCCC3)C(C)C)ccc21` (configuration not stated) gave Measles inh 0.6.
Cc1nn(C(C)(C)C)c(OC(=O)c2ccc3c(c2)OCO3)c1S(=O)(=O)c1ccccc1 was read as Measles inh 0.8.
For COC(=O)CNC(=O)Cn1cnc2sc3c(c2c1=O)CCCC3 the results were Measles inh -0.15.
CC1(C)CC(=O)C(C(C2=C(O)CC(C)(C)CC2=O)c2ccc([N+](=O)[O-])o2)=C(O)C1 was read as Measles inh -1.1.
For O=C(NCCc1ccccc1Cl)c1ccc(NS(=O)(=O)c2cccs2)cc1 the results were Measles inh -0.16.

Of the compounds above, these have two or more sulfur atoms:
Screening O=C(CSc1nc2ccccc2[nH]1)c1cccs1 returned Measles inh -0.12.
`O=S1(=O)CCC(NS(=O)(=O)CCCCC(Cl)(Cl)Cl)C1` (configuration not stated) gave Measles inh 1.2.
Screening NS(=O)(=O)c1ccc(CCNS(=O)(=O)c2ccc3c(c2)CCN3C(=O)C2CC2)cc1 returned Measles inh 0.82.
For O=C(NCCc1ccccc1Cl)c1ccc(NS(=O)(=O)c2cccs2)cc1 the results were Measles inh -0.16.

Next structures follow:
`COC(=O)c1ccc(C(=O)OC)c(NC(=O)C(C(C)C)N2C(=O)c3ccccc3C2=O)c1` (configuration not stated) gave Measles inh -0.03.
`CC(=O)N1CCc2cc(Br)cc(S(=O)(=O)CCC(=O)NCc3cccs3)c21` gave Measles inh 1.5.
For CC(NCCC(=O)c1ccc(Cl)cc1)C(=O)O (configuration not stated) the results were Measles inh -1.2.
`CCc1ccc(C2NC(=O)c3ccccc3O2)cc1` (configuration not stated) gave Measles inh -0.36.
O=[N+]([O-])c1ccc(C2=Nc3ccccc3N=C(c3cc(Cl)ccc3O)C2)cc1 was read as Measles inh 0.44.
`CCOC(=O)C1=C(C)NC(=S)N(C(C)=O)C1c1ccc(OC(C)=O)cc1` (configuration not stated) gave Measles inh -0.45.
Cc1ccc(Sc2ccc(C(=O)NCCc3ccccc3)cc2N)cc1 was read as Measles inh -0.68.
`COc1cc(C=Cc2[nH]c(=O)[nH]c(=O)c2[N+](=O)[O-])ccc1OCC(C)C` gave Measles inh -1.4.
O=C(c1ccccc1)N1CCN(C2c3cccc4cccc(c34)C2NS(=O)(=O)c2ccc(Cl)cc2)CC1 (configuration not stated) was read as Measles inh 0.79.
Cc1nn(-c2ccccc2)c(OC(=O)c2ccco2)c1Sc1ccc(Cl)cc1 was read as Measles inh 0.73.
Cc1cc(NS(=O)(=O)c2ccccc2)c(C)c(S(=O)(=O)c2ccccc2)c1O was read as Measles inh -1.1.
`Cc1ccc(-n2c(=O)[nH]c3cc(C(=O)NCc4ccccc4Cl)ccc3c2=O)cc1` gave Measles inh -0.15.
O=c1[nH]c2ccc(S(=O)(=O)N3CCCCC3)cc2s1 was read as Measles inh -0.09.
`O=C1c2ccc(-c3ccccc3[N+](=O)[O-])cc2C(=O)N1c1cccc(C(F)(F)F)c1` gave Measles inh -1.1.
`O=C(O)c1cc(C(=O)O)c2cc(Cl)ccc2n1` gave Measles inh -0.34.
Screening CC1CCc2c(sc(NC(=O)C3CCCCC3C(=O)O)c2C(=O)OC(C)C)C1 (configuration not stated) returned Measles inh -0.81.
`Cc1nc2c(oc3ccc(Br)cc32)c(=O)[nH]1` gave Measles inh -0.22.
`COc1ccc(CC(=O)OCC2C(C=C(C)C)C=C(C)C(C)C2C)cc1` (configuration not stated) gave Measles inh -0.13.
`COc1ccc(NC(=O)Cn2c(C)nc3sc4c(c3c2=O)CCCC4)cc1Cl` gave Measles inh -1.
For Cc1cccc(NC(=O)CSc2ncc(-c3ccccc3)[nH]2)c1C the results were Measles inh -0.79.
CCCc1cc(=O)[nH]c(SCc2cccc(C)c2)n1 was read as Measles inh -0.9.
`O=C(c1ccco1)N1CCN(c2ccc([N+](=O)[O-])c(NCc3cccnc3)c2)CC1` gave Measles inh 0.31.
For Cn1cc(C(=O)N2CCc3ccccc32)c(=O)c2cc(S(=O)(=O)N3CCCCC3)ccc21 the results were Measles inh 0.21.
Screening CC(N)C(=O)N1CCOCCOCCN(C(=O)C(C)N)CCOCCOCC1 (configuration not stated) returned Measles inh 0.47.
CC(C)(CO)NC12CC3CC(CC(C3)C1)C2 was read as Measles inh 0.02.
Screening CC(C)CN(CC(C)C)c1nc(-c2ccc([N+](=O)[O-])cc2)nc2ccccc12 returned Measles inh 0.44.
`O=C(CN1CCN(C(=O)c2cccc(F)c2)CC1)Nc1ccccc1F` gave Measles inh 0.3.
CC(=O)NCCN1C(=O)C(=O)/C(=C(/O)c2ccc(Cl)cc2)C1c1ccccc1 (configuration not stated) was read as Measles inh -0.41.
For O=C(Nc1ccc2c(c1)Cc1ccccc1-2)c1ccco1 the results were Measles inh 0.62.
`Cc1ccc(Nc2c(-c3cccnc3)nc3ccc(C)cn23)cc1` gave Measles inh -0.85.
Screening CC1CCCN(C(=O)c2cc(N3C(=O)C4C5CCC(C5)C4C3=O)ccc2Cl)C1 (configuration not stated) returned Measles inh 0.15.
`CCC(C)NC(=O)CCS(=O)(=O)c1cccc2nsnc12` (configuration not stated) gave Measles inh -0.33.
Screening CCOC(=O)c1c(NC(=O)c2cc3nc(-c4ccco4)cc(C(F)(F)Cl)n3n2)sc(C)c1C returned Measles inh -1.1.
`O=C1Nc2ccc(Br)cc2C(O)(C(=O)NC2CCCCC2)N1c1ccc(Cl)cc1` (configuration not stated) gave Measles inh -0.51.
Screening COc1ccc(C(=O)Nc2sc3c(c2C(=O)OC(C)C)CCCC3)cc1OC returned Measles inh -0.36.

Some of these compounds in order of length of the SMILES, smallest number first:
For O=C(Nc1ccc2c(c1)Cc1ccccc1-2)c1ccco1 the results were Measles inh 0.62.
Screening CC1CCCN(C(=O)c2cc(N3C(=O)C4C5CCC(C5)C4C3=O)ccc2Cl)C1 (configuration not stated) returned Measles inh 0.15.
Screening CC(C)CN(CC(C)C)c1nc(-c2ccc([N+](=O)[O-])cc2)nc2ccccc12 returned Measles inh 0.44.

In the list so far, 10 have a thiophene ring, fused or not.
`O=C(Nc1cc2cccc([N+](=O)[O-])c2oc1=O)c1cccs1` gave Measles inh 0.26.
Screening O=C(CSc1nc2ccccc2[nH]1)c1cccs1 returned Measles inh -0.12.
For COc1cc2c(cc1OC)C(C(=O)N1CCCCC1)C(c1cccs1)N(C)C2=O (configuration not stated) the results were Measles inh -0.53.
For COC(=O)CNC(=O)Cn1cnc2sc3c(c2c1=O)CCCC3 the results were Measles inh -0.15.
For O=C(NCCc1ccccc1Cl)c1ccc(NS(=O)(=O)c2cccs2)cc1 the results were Measles inh -0.16.
`CC(=O)N1CCc2cc(Br)cc(S(=O)(=O)CCC(=O)NCc3cccs3)c21` gave Measles inh 1.5.
Screening CC1CCc2c(sc(NC(=O)C3CCCCC3C(=O)O)c2C(=O)OC(C)C)C1 (configuration not stated) returned Measles inh -0.81.
`COc1ccc(NC(=O)Cn2c(C)nc3sc4c(c3c2=O)CCCC4)cc1Cl` gave Measles inh -1.
Screening CCOC(=O)c1c(NC(=O)c2cc3nc(-c4ccco4)cc(C(F)(F)Cl)n3n2)sc(C)c1C returned Measles inh -1.1.
Screening COc1ccc(C(=O)Nc2sc3c(c2C(=O)OC(C)C)CCCC3)cc1OC returned Measles inh -0.36.
